# Source: PubChem (several laboratories)
# Beta2AR agonist: activates human beta-2 adrenergic receptor causing internalization | P07550 | Am2.2-beta2AR cells, FAP receptor internalization, flow cytometry; reference of the scale not given here | response, % (test concentration not listed) | actives 0.43% (n = 340,000) | AID 504454;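 active means response above a set limit, near 3 SD of response in nonfluorescent compounds, cut at about 42% in these data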;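 further: stock transfer was 100 nL into about 11 µL; a reference agonist was the positive control; negative values mostly stem from fluorescent compounds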
# UCH37 DUB inh: blocks the human deubiquitinase UCH37; Q9Y5K5; purified proteasome/UCH37, Ub-AMC cleavage fluorescence; inhibition, % (no concentration beside the values); actives 0.33% (n = 330,000); AID 588478;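 active means mean of two replicates above 20%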;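 further: 0% = compound-free wells with enzyme and 100% = wells lacking proteasome; stock transfer was 100 nL into about 20 µL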
# Target sequence (Q9Y5K5 whole entry, looked up): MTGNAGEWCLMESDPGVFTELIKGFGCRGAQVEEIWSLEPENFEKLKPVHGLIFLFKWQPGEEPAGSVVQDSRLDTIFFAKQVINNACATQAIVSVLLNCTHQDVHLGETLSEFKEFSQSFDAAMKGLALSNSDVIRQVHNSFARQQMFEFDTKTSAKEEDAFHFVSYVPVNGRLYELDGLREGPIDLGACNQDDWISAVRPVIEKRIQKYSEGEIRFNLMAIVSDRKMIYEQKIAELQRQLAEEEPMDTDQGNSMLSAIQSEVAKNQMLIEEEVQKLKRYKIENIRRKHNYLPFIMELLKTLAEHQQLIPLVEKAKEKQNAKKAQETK
#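 System: Proteasome-associated human UCH37 deubiquitinase; Input: 0.15 nM proteasome in added enzyme buffer; Also added: Ub-AMC substrate from 1 µM stock; Incubation: 30 min compound-proteasome preincubation then 25 min substrate reaction, room temperature; Detection: fluorescence, ex 355 nm, em 460 nm; Read-out: % inhibition of Ub-AMC cleavage fluorescence; Benchmarks: no-proteasome and no-compound wells.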
# Vif TR-FRET: inhibitors of Vif binding to APOBEC3G peptide, primary screen, biochemical, TR-FRET, GST-Vif 1-94, biotin-A3G peptide, dose response retest (AID 1117319); TR-FRET GST-Vif / biotin-A3G peptide binding; higher % means a stronger effect; test concentration not given here; strong numbers were not always called active; inhibition, %; hits with a dose series show IC50 in µM; actives 0.57% (n = 260,000);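 active means above the screen mean plus three standard deviations and confirmed in dose response; inconclusive means results disagree or hit not tested in dose response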;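 further: Vif residues 1-94 fused to GST binding biotinylated APOBEC3G peptide 110-148; 0% = full assay without inhibitor and 100% = GST in place of GST-Vif; retest series ran down from 100 µM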
# HNF4A DNA FP: change in binding of human HNF4 alpha to DNA; AID 1224865; HNF4a-FITC DNA binding, fluorescence polarization, 1 h; activity change, % at 10 µM; actives 0.3% (n = 360,000); P41235; in the data active means activity change above about 30%, passing the limit was not always enough;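 further: controls were the assay level and a saturating level of protein; the project sought stronger binding though the title names inhibitors; some compounds called inactive have numbers as strong as hits; positive values seem to mean higher polarization but the record does not say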
# Target sequence (P41235 whole entry, looked up): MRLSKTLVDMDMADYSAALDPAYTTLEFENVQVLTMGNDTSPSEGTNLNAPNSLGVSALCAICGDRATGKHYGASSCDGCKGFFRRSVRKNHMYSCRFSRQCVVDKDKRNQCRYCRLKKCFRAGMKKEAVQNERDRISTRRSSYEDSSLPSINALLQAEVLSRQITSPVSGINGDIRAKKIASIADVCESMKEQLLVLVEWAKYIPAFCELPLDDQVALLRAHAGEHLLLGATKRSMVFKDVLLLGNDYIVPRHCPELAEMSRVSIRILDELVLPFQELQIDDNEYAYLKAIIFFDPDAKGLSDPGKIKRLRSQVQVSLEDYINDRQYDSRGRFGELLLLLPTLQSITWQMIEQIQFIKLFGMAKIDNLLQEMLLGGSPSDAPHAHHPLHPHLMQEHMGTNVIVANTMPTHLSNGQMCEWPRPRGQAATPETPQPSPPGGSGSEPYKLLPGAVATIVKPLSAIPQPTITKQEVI
# Bfl-1 A1 inh: inhibitors of the anti-apoptotic protein A1, read as caspase activation. MEF A1-2A-BIM cells, Caspase-Glo 3/7 luminescence, 3 h; percent of clofoctol response, vehicle zero. caspase activation, % (no concentration beside the values). actives 0.066% (n = 330,000);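 active means over half of replicate activation scores above 10%, or exactly half above 10 with the replicate mean above 10; inconclusive means replicate mean below 10 yet half the replicates above 10; inactive means over half of replicates below 10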;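 further: wells of about 30 µL received 50 nL stock; many hits fall short of the cut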
# LANA-H2B inh: blocks KSHV LANA binding to histone H2A/H2B. Q9QR71. cell-free LANA-H2A/H2B peptide, fluorescence polarization. inhibition, % (no concentration beside the values). actives 0.6% (n = 320,000). AID 2629; in the data active means inhibition mostly above about 10%, no sharp cut-off; inactive means mostly below about 6.7%;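 further: stock transfer was 7.5 nL into about 10 µL; 0% = median of vehicle wells and 100% = median of positive control wells; one replicate is shown; the record names a cut of 25% in any replicate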
# Ecoli growth: E. coli growth inhibition; Escherichia coli growth, OD600, 23 h; active compounds read low; OD600 absorbance (no concentration beside the values); actives 0.21% (n = 330,000);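 active means OD600 absorbance below the run mean of sample wells minus 3.6 SD, in any replicate, cut at about 0.56 in these data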;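 further: stock transfer was 300 nL into about 60 µL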
# Active calls of the source: *; ? = inconclusive; . = no result given; + = active, no number; & = joins results of further samples. Not a hit list. Share with any hit: about 2.1%.
SMILES,Beta2AR agonist,UCH37 DUB inh,Vif TR-FRET,HNF4A DNA FP,Bfl-1 A1 inh,LANA-H2B inh,Ecoli growth
CCCc1cc(C(=O)N2CCCC(Cc3cccc(Cl)c3)(C(=O)OCC)C2)n(C)n1 (stereo not drawn),-0.5,4.2,.,-2.2,-0.1,5.9,0.689
Cc1ccc(-c2nnn(CC(=O)N(Cc3ccco3)C(C(=O)NC(C)(C)C)c3ccc(C)o3)n2)o1 (stereo not drawn),12.0,1.4,1.8%,-2.5,-0.2,9.1,0.689
COC(=O)c1c(NC(=O)CSc2ccccc2N)sc(C)c1C,9.7,3.3,6.3%,-4.1,1.2,4.1,0.679
CCCCc1nc2cc(C(=O)N(C)C(C)c3ccccn3)ccc2o1 (stereo not drawn),-13.0,6.1,.,2.6,.,.,0.735
CCc1ccc(NC(=O)C(C)OC(=O)/C=C/c2cccc([N+](=O)[O-])c2)cc1 (stereo not drawn),4.9,4.0,-11.9%,-0.6,-0.2,-2.8,0.673
Cc1cc(NC(=O)CN2CCN(C/C=C/c3ccccc3)CC2)c([N+](=O)[O-])cc1C,-1.9,5.3,-10.2%,-4.0,0.0,-2.4,0.751
c1ccc(Cc2nnc3sc(C4COc5ccccc5O4)nn23)cc1 (stereo not drawn),-3.8,2.0,6.2%,-0.6,0.3,-6.4,0.676
COc1ccccc1C(C(=O)NC1CCCCC1)N(C(=O)c1csnn1)C1CC1 (stereo not drawn),-3.3,2.2,.,-0.9,0.5,-1.7,0.67
Cc1sc2nc(SCC(=O)N(CCO)CCO)nc(N)c2c1C,-10.9,1.0,-3.0%,8.9,0.0,-5.5,0.674
COc1ccc(N2CCN(C(=O)CSc3nnc(-c4ccco4)n3C)CC2)cc1,.,-0.5,-7.1%,.,-0.2,0.5,0.681
CC(C)(C)C(=O)NNC(=O)C1CC1(c1ccccc1)c1ccccc1 (stereo not drawn),-1.4,4.4,7.7%,5.3,2.0,-3.6,0.663
COc1cccc(NC(=O)N2CCCC2C(=O)Nc2ccc3c(c2)OCO3)c1 (stereo not drawn),1.9,0.8,8.4%,-0.5,0.9,5.1,0.722
COc1ccc(CNC(=O)CCC(=O)N2CCN(C(C)=O)CC2)cc1,3.8,-1.1,.,8.9,0.4,0.9,0.661
COc1ccc(C(=O)NCC(=O)OCC(=O)Nc2cccc(S(=O)(=O)N3CCCC3)c2)cc1,-0.4,2.7,.,-2.4,0.0,0.0,0.716
O=C(CSc1nc2ccccc2[nH]1)NC1CCCc2ccccc21 (stereo not drawn),-14.3,2.9,-4.2%,-0.8,0.2,4.9,0.663
O=C(COc1ccccc1)N1CCN(C(=O)Cc2ccccc2)CC1,-11.9,5.3,1.5%,-3.6,0.8,1.2,0.703
CCOC(=O)/C(C#N)=C/C1=C(N2CCOCC2)CC(C)(C)OC1,-0.8,5.1,-4.9%,0.5,1.1,2.5,0.676
CCCCCCCCCCCCN1C(=O)CSC1c1cccnc1 (stereo not drawn),2.3,2.1,1.2%,0.9,-0.8,-3.0,0.646
CC1(C)OC(=O)C(C(c2ccccc2)C(C#N)C(N)=O)=C(O)O1 (stereo not drawn),-8.1,0.7,5.9%,-2.1,1.7,-0.8,0.646
CCOC(=O)N1CCN(C(=O)Nc2ccc3nc(C)sc3c2)CC1,4.6,0.9,26.2%,0.5,0.0,-4.7,0.746
Cc1cc(C)c2nc(SCC(=O)Nc3ccccc3N3CCOCC3)c(C#N)cc2c1,3.5,-22.4,.,4.6,0.8,-0.1,0.767
CCOc1ccccc1Nc1ncccc1C(=O)O,-11.6,5.1,-2.3%,2.6,-0.6,1.4,0.691
Nc1nc(SCc2ccccn2)c2ncn(C3OC(CO)C(O)C3O)c2n1 (stereo not drawn),0.2,-0.1,3.9%,-0.1,.,.,0.69
COc1cc2[nH]c(=O)n(CCCCCC(=O)N3CCN(c4ccccn4)CC3)c(=O)c2cc1OC,7.9,-2.3,26.2%&-2.4%,6.2,0.9,0.4,0.691
COC(=O)c1cc(S(=O)(=O)N2CCN(C3CCCCC3)CC2)c[nH]1,0.2,4.3,.,-0.8,0.8,-2.1,0.688
# (list continues)
SMILES,Beta2AR agonist,UCH37 DUB inh,Vif TR-FRET,HNF4A DNA FP,Bfl-1 A1 inh,LANA-H2B inh,Ecoli growth
CCCCn1c(N)c(N(CCOC)C(=O)COC(=O)C(C)Oc2ccc(Cl)cc2)c(=O)[nH]c1=O (stereo not drawn),-7.9,2.3,1.8%,-0.6,-0.1,21.9,0.63
CC(c1ccccc1)n1c(N2CCN(C)CC2)nc2c1c(=O)[nH]c(=O)n2C (stereo not drawn),-2.9,2.9,7.2%,2.0,0.1,-4.8,0.7
O=C(CCC(=O)c1ccc(F)cc1)NCC1(N2CCCCC2)CCCCC1,4.5,-0.6,.,1.4,0.2,-0.5,0.675
CC(=O)N1c2ccc(S(=O)(=O)N3CCC(C(=O)NCc4ccc(F)cc4)CC3)cc2CC1C (stereo not drawn),-1.3,0.5,.,-0.5,-0.5,-3.2,0.713
Cc1ccc(C2=CC(=O)C[C@H](c3ccc4c(c3)OCO4)C2)cc1,-3.9,1.8,.,-4.0,-1.3,5.2,.
Cc1ccc(C(C)C)c(OCC(=O)N2CCN(c3ncccn3)CC2)c1,-1.7,-1.4,-10.2%,0.4,2.5,0.2,0.656
COc1cccc(/C=N/NC(=O)CN(C)S(=O)(=O)c2ccccc2)c1OC,1.1,.,-2.2%,-1.1,0.3,-8.4,.
CCOC(=O)CN1CC23C=CC(O2)C(C(=O)Nc2ccc(OCC)cc2)C3C1=O (stereo not drawn),-0.6,5.3,0.0%,1.4,0.4,-1.3,0.72
CC1CCN(S(=O)(=O)c2ccc3[nH]c(=O)c(=O)[nH]c3c2)CC1,1.0,-5.7,-1.3%,1.2,0.6,-0.1,0.732
O=C(CCN1C(=O)c2ccccc2C1=O)NC(=S)Nc1ccccc1,-11.1,-2.1,-10.3%,-2.3,-0.3,-1.5,0.73
COc1cc(C(=O)Oc2ccccc2/C=N/NC(=O)c2ccc(C)cc2)cc(OC)c1OC,15.2,.,7.3%,-2.7,-1.9,-0.7,.
Cc1ccccc1CSCCNC(=O)c1ccc(N(C)S(=O)(=O)c2ccccc2)cc1,2.5,6.1,2.9%,-2.1,0.9,-1.9,0.745
COc1ccc(CNC(=O)COC(=O)c2cnccn2)cc1,-6.7,1.1,-3.3%,3.6,1.8,3.9,0.697
CCOC(=O)C1=C(C)NC(C)=C(C(=O)OCC)C1C(=O)OCC(=O)N1CCOCC1,-3.1,-38.9,-2.4%,0.2,0.0,-1.7,0.645
CC(C)(C)NC(=O)C(c1ccsc1)N(CCc1ccccc1)C(=O)Cn1nnc2ccccc21 (stereo not drawn),-4.3,0.1,4.5%,-1.4,-0.6,-0.6,0.678
COC(=O)c1sc(NC(=O)C2CCCO2)c(C(=O)OC)c1C (stereo not drawn),-6.5,2.7,?,1.6,0.0,-4.9,0.712
CC(=O)Nc1ccc(-c2nc3cc(Cl)ccc3o2)cc1,-2.9,-13.0,1.4%,0.3,-4.0,3.7,0.714
CC(NC(=O)C1CCCN1C(=O)OCc1ccccc1)c1ccccc1 (stereo not drawn),-4.7,1.9,8.8%,-2.9,-0.1,5.1,0.699
CC(C)(C=O)C1=CC(=O)c2ccccc2C1=O,65.7*,-59.2,?,-5.0,-0.7,+,0.664
CS(=O)(=O)N(CC(O)Cn1c2ccccc2c2ccccc21)c1ccccc1 (stereo not drawn),-4.4,1.3,0.2%,-1.9,0.2,-3.2,0.691
CCOC(=O)c1csc(NC(=O)c2cc3ccccc3o2)n1,11.1,-8.0,0.8%,-0.7,0.2,8.0,0.708
CS(=O)(=O)NCc1ccc(C(=O)O)cc1,4.0,0.3,3.5%,-1.5,1.3,-3.0,0.648
COc1ccc(OC)c(NC(=S)N2CCN(c3ccccn3)CC2)c1,-6.8,-1.9,-1.0%,-2.1,-0.3,-0.8,0.723
Cc1cc(NC(=O)CCC(=O)N(CC(=O)NC2CCCC2)c2ccc(C(C)C)cc2)no1,-5.2,-0.3,.,0.1,1.5,2.0,0.657
O=C(Cn1c(=O)[nH]c2ccccc2c1=O)Nc1ccc2c(c1)OCCO2,12.5,1.0,.,-0.7,-0.2,-2.8,0.685

# 3 compounds drawn at random from the list so far, as already listed:
SMILES,Beta2AR agonist,UCH37 DUB inh,Vif TR-FRET,HNF4A DNA FP,Bfl-1 A1 inh,LANA-H2B inh,Ecoli growth
Cc1ccc(C(C)C)c(OCC(=O)N2CCN(c3ncccn3)CC2)c1,-1.7,-1.4,-10.2%,0.4,2.5,0.2,0.656
COc1ccc(CNC(=O)CCC(=O)N2CCN(C(C)=O)CC2)cc1,3.8,-1.1,.,8.9,0.4,0.9,0.661
Cc1cc(NC(=O)CCC(=O)N(CC(=O)NC2CCCC2)c2ccc(C(C)C)cc2)no1,-5.2,-0.3,.,0.1,1.5,2.0,0.657

# Additional compounds follow:
SMILES,Beta2AR agonist,UCH37 DUB inh,Vif TR-FRET,HNF4A DNA FP,Bfl-1 A1 inh,LANA-H2B inh,Ecoli growth
Cc1ccc(C(=O)NC(=O)OCCn2c(C)cnc2[N+](=O)[O-])cc1,13.6,4.4,7.4%,0.6,0.4,2.0,0.622
Cc1ccccc1NC(=O)c1ccc2c(c1)N(C)CCS2,0.1,-4.8,.,-3.4,-6.1,-2.1,0.704
CC(=O)c1cccc(NC(=S)NC(=O)c2ccccc2Br)c1,-0.6,3.3,1.1%,-2.3,1.9,2.8,0.682
COc1ccc(CCNC(=O)C2CCCN2C(=O)Nc2ccc(Cl)cc2)cc1OC (stereo not drawn),-2.9,0.3,.,1.6,?,1.1,0.715
CCC(C)NCCOc1ccccc1C (stereo not drawn),-0.4,.,.,-12.3,0.1,-0.8,.
O=C(Nc1ncccn1)c1ccc([N+](=O)[O-])cc1Cl,-2.4,.,-1.2%,-2.6,-0.4,-0.1,.
O=C(NC(=S)N(CCCCO)C1CCCCC1)c1sc2ccccc2c1Cl,-1.1,0.8,-9.3%,0.8,-0.5,-3.5,0.702
Fc1ccc(Nc2nc3ccccc3s2)cc1,1.4,-0.3,-4.5%,-2.8,0.5,-4.8,0.734
COc1ccc2oc(C(=O)OCC(=O)NC3CC3)c(C)c2c1,-1.9,-108.4,-6.7%,-4.0,0.7,-0.8,0.71
CCOC(=O)C1=C(COC(=O)CC(C)c2ccccc2)NC(=O)NC1C (stereo not drawn),1.7,1.8,-2.5%,-4.6,1.0,-4.9,0.679
CCn1c(/N=C/c2ccccc2NS(=O)(=O)c2ccc(C)cc2)nc2ccccc21,31.5,.,.,0.0,0.7,2.6,.
CCn1c(SCC(=O)N2CCN(S(=O)(=O)c3ccccc3)CC2)nnc1-c1cccs1,-1.5,1.2,-7.5%,2.1,0.0,-3.4,0.714
CCc1ccc(C2=NN(C(=O)OC)C(O)(C(F)(F)F)C2)cc1 (stereo not drawn),-1.7,6.1,2.4%,0.2,-5.3,2.6,0.675
O=C(COc1ccc(F)cc1)NCC1(N2CCCCC2)CCCCC1,2.4,1.6,9.5%,3.9,.,.,0.64
O=C(c1ccccc1F)N1CCN=C1c1ccccc1,-2.6,1.7,-8.6%,-2.5,-0.4,-4.2,0.717
O=C(NC1CCCC1)c1ccc(CNc2c(N3CCOCC3)c(=O)c2=O)cc1,3.4,6.7,66.3%,1.5,-0.4,-6.5,0.758
O=C(NC1CCCC1)C(c1ccc(N2CCOCC2)cc1)N(Cc1ccccc1)C(=O)c1ccco1 (stereo not drawn),2.4,-1.7,-4.3%&-2.5%,0.5,0.1,-22.5,0.756
Cc1ccc(C(C)C)c(OCC(=O)OCC(=O)c2c(N)n(C)c(=O)n(C)c2=O)c1,5.7,-0.2,14.3%,1.1,0.3,-0.6,0.643
